Env fusion inh: blocks HIV Env-driven cell-cell fusion | 1.1% of 360,000 active | HeLa-JRFL Env/CEM21 cell fusion, luciferase | AID 651610 | inhibition, % at 12.3 µM;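 active = mean replicate inhibition score of at least 50 and every replicate individually at or above 50; inconclusive = only one of the two criteria met; inactive = mean below 50 and not all replicates reaching 50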;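 note: 0% = plate neutral controls and 100% = maraviroc near 300 nM; one replicate is shown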
UUG fidelity: yeast start codon fidelity modulation; S. cerevisiae UUG-firefly luciferase reporter, luminescence/redox ratio; 0.13% of 350,000 active; activity score, % at 18.7 µM;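 active = replicate mean at a twofold rise or more, about +100% in these data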;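 note: firefly luciferase made from a UUG start codon reports start codon fidelity; reporter light over untreated wells divided by growth signal over untreated wells; some hits fall short of that in this replicate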
PABP FP inh: PABP-poly(A) binding inhibition | PABP-poly(A) RNA binding, fluorescence polarization | 1% of 290,000 active | inhibition, % at 35 µM;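 active = 50% or more with normal probe brightness, or confirmed in later tests; inconclusive = above 50% with abnormal brightness, or retests that disagree; inactive = below 50% or failed in later tests; about a fifth of its hits are not listed in these tables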;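 note: calls also rest on retests at 20 µM and on dose response follow-up; controls were probe without protein and protein plus probe with vehicle; some compounds called inactive have numbers as strong as hits; many hits fall short of the cut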
Target sequence (P11940 whole entry, looked up): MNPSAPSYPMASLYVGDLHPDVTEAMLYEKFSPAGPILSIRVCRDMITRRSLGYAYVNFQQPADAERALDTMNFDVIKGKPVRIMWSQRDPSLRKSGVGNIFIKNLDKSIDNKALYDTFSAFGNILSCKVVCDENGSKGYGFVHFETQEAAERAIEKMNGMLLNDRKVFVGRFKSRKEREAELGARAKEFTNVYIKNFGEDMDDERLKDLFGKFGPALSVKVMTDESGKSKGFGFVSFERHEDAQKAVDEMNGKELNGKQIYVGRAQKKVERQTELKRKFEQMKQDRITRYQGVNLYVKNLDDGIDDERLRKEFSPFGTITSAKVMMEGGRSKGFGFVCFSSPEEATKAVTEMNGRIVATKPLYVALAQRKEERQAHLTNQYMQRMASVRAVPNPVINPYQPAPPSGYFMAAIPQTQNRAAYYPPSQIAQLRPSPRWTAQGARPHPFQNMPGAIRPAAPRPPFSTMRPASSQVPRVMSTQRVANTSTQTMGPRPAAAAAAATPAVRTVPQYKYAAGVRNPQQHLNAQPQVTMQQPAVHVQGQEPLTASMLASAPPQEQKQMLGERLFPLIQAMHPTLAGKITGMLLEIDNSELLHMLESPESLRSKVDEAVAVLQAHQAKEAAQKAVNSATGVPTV
eIF4H FP inh: inhibitors of RNA binding by human eIF4H | Q15056 | eIF4H fluorescence polarization binding assay | inhibition, % at 35 µM | 0.94% of 290,000 active | AID 2012;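 active = 50% or more with normal probe brightness, or confirmed in later tests; inconclusive = above 50% with abnormal brightness, or retests that disagree; inactive = below 50% or failed in later tests; about a fifth of its hits are not listed in these tables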;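 note: calls also rest on retests at 20 µM and on dose response follow-up; 0% = protein and probe with vehicle and 100% = probe without protein; strong numbers were not always called active; many hits fall short of the cut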
CSC inhib: cancer stem cell inhibition. 1.1% of 300,000 active. inhibition, % at 7.5 µM. cancer stem cell-like cells viability, luminescence. AID 2717;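 active = mean at 75% or more and at least half the replicates too; inconclusive = mean and replicates disagree; tested in HMLE shEcad cells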;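 note: 0% = median of negative and 100% = median of positive control wells; the first replicate is given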
MT1-MMP act inh: inhibitors of human MT1-MMP activation; P50281; HT1080 RFP-PRO-GFP cells, GFP/RFP ratio fluorescence, overnight; percent of plate control window, DMSO zero; GFP/RFP ratio change, % at 20 µM; 0.061% of 360,000 active; AID 651647;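 active = GFP/RFP ratio change of at least 30% with cell ATP level not reduced by more than half and red fluorescence within 50% of control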; note: strong numbers were not always called active
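Read-out: GFP/RFP fluorescence ratio; Test system: RFP-PRO-GFP reporter HT1080 cells; Compound dosing: single-point 20 µM compound, 1% DMSO; Times: overnight compound exposure at 37 °C.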
Rce1 inhib: blocks yeast Ras-converting enzyme; yeast membranes, quenched prenylated peptide cleavage fluorescence; calls only; 0.27% of 290,000 active;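 active = fall in fluorescence gain of 50% or more versus controls, with final raw signal at or below 3038400; inconclusive = same 50% fall but final raw signal above 3038400; inactive = fall in fluorescence gain under 50%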;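 note: plate controls were neutral control wells for no effect and wells lacking membranes for full effect; tested at 10 µM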
Target sequence (Q03530 whole entry, looked up): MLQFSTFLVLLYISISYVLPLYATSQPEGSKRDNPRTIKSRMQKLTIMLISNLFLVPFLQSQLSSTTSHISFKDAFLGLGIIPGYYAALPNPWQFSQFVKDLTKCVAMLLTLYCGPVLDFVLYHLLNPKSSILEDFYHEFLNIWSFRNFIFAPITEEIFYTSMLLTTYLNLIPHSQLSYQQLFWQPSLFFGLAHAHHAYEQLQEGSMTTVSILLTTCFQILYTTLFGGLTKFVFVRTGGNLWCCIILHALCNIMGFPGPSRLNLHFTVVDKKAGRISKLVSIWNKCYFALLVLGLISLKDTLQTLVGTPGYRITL
MT1-MMP act inh RFP: recorded beside MT1-MMP act inh, whose call it bears; RFP signal change, %; measured here: RFP expression control read;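 0 = vehicle wells; hits needed this value within 50% of zero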
The depositor's hits bear a star; i = inactive; ? = inconclusive; · = not tested or not shown; & = joins results of further samples; [ ] = another dose, or the depositor's remark.

1) CCCCNc1nnc(SCC(=O)N2CCN(S(=O)(=O)c3ccc4ccccc4c3)CC2)s1
2) CC(=O)c1nn(-c2cccc(Cl)c2)cc1C(=O)c1ccco1
3) COCC(C)NC(=O)COc1ccc(Cl)cc1Cl (stereo unspecified)
4) Cc1c(C(=O)Nc2ccccc2-c2ccccc2)cccc1[N+](=O)[O-]
5) Cc1ccc(CSc2nc3c(c(=O)[nH]2)C(c2ccncc2)C2=C(CCCC2=O)N3)cc1 (stereo unspecified)
6) CN(C)/C=N/c1nc2nccc(-c3cccc(Cl)c3)n2n1
7) Cc1noc(C)c1S(=O)(=O)N1CCCC(C(=O)NCC2CCCO2)C1 (stereo unspecified)
8) O=C(N[C@@H]1CC[C@@H](CCNC(=O)C2CCOCC2)O[C@@H]1CO)c1ccncc1

entry no. | 1 | 2 | 3 | 4 | 5 | 6 | 7 | 8
Env fusion inh | -88 | · | 25 | 15 | -1 | 5 | -18 | 13[16.7 µM]
UUG fidelity | -21 | -10 | -14 | -6 | -13 | · | -1 | -6
PABP FP inh | -4 | 4 | 5 | -1 | 10 | -14 | -1 | ·
eIF4H FP inh | -6 | -8 | 4 | 10 | 2 | -4 | -16 | ·
CSC inhib | 0 | -1 | · | · | -11 | -3 | -2 | ·
MT1-MMP act inh | 5 | 4 | 4 | -2 | -2 | 3 | 2 | -2
MT1-MMP act inh RFP | -5 | -1 | -2 | -1 | 3 | 2 | 4 | 4
Rce1 inhib | i | i | i | i | i | · | i | ·

9) CCN(c1ccccc1)S(=O)(=O)c1ccc(C(=O)Nc2cc(C)ccn2)cc1
10) Cc1ccc2c(c1)[C@@H]1[C@H](CO2)[C@H](c2ccccc2)[C@@]2(C)C(=O)N[C@H](C)C(=O)N12
11) CCOC(=O)N1CCN(C(=O)CCCCn2c(=S)[nH]c3ccsc3c2=O)CC1
12) CC(C)Cn1c(=O)[nH]c(=O)c2c(C(F)(F)F)cc(-c3ccccc3)nc21
13) COc1ccc(C)cc1NC(=O)CN1CCCC1c1ccc2c(c1)OCCCO2 (stereo unspecified)
14) CN(C)c1ccc(C(CNC(=O)c2ccccc2Br)c2c[nH]c3ccccc23)cc1 (stereo unspecified)
15) CCOC(=O)CN1C(=O)C(=O)N(Cc2cccc(C)c2)C1=O
16) COC(=O)C1=C(C)N(Cc2ccccc2)C(=O)N[C@H]1c1ccco1

entry no. | 9 | 10 | 11 | 12 | 13 | 14 | 15 | 16
Env fusion inh | -2 | -3 | 18 | -9 | ? | 1 | -10 | 8
UUG fidelity | -8 | -12 | · | -3 | -12 | · | -9 | -8
PABP FP inh | · | · | 1 | 12 | · | -15 | -3 | ·
eIF4H FP inh | · | · | 2 | -2 | · | -8 | 2 | ·
CSC inhib | -2 | -14 | -2 | 18 | -8 | 2 | -5 | -10
MT1-MMP act inh | 1 | 2 | -5 | 14 | 1 | -4 | 4 | -2
MT1-MMP act inh RFP | -4 | 5 | -1 | -3 | -4 | -3 | 3 | -2
Rce1 inhib | · | · | i | i | · | i | i | i

17) Cc1ccc(OCCN2CCOCC2)cc1C
18) CC(=O)Nc1cc2ccc(OC(C)=O)cc2oc1=O
19) CC(=O)N1c2ccccc2C2CCCC[C@@H]21 (stereo partly specified)
20) CN1CCN(C(=O)c2ccc(C(C)(C)C)cc2)CC1
21) CCOC(=O)c1ccc(NC(=O)Cn2nnc(-c3ccc(F)cc3)n2)cc1
22) CCCSc1nc(O)c(C2OC(=O)c3c2ccc(OC)c3OC)c(=O)n1-c1ccccc1 (stereo unspecified)
23) Cc1cc(Br)cn2c(Cc3ccccc3)c(-c3ccc(F)cc3)nc12
24) COc1ccc(NC(=O)c2cccc3c(-c4ccc(OC)cc4C)coc23)cc1

entry no. | 17 | 18 | 19 | 20 | 21 | 22 | 23 | 24
Env fusion inh | -12 | -6 | 8 | -29 | 5 | · | -24 | -34
UUG fidelity | -8 | -14 | -7 | -2 | -9 | -3 | 12 | -10
PABP FP inh | 0 | -10 | · | 8 | -5 | 7 | · | ·
eIF4H FP inh | 6 | -5 | · | -2 | -6 | -4 | · | ·
CSC inhib | -17 | -8 | -12 | 7 | -7 | -3 | · | ·
MT1-MMP act inh | 12 | 1 | 1 | 3 | 1 | 5 | -4 | 3
MT1-MMP act inh RFP | 2 | 1 | 1 | 7 | 2 | 5 | 0 | -12
Rce1 inhib | i | i | · | i | i | i | · | ·

25) CC(C)Cn1c(SCC(=O)c2ccc(Cl)s2)nnc1-c1ccco1
26) Cc1ccc(NC(=O)Cc2c(O)c3ccccc3[nH]c2=O)c(C)c1
27) COc1ccc(-c2nn(-c3ccccc3)cc2N)cc1
28) Cc1ccccc1Cn1cnc2c(cnn2C(C)(C)C)c1=O
29) Cc1ccc[n+](CC(=O)/C=C2\N(C)c3ccccc3C2(C)C)c1
30) CCCCC(=O)NC(=S)NNC(=O)c1ccc(OC)cc1
31) O=C(O)CNS(=O)(=O)c1ccc(C2CCCCC2)cc1
32) COc1ccc(S(=O)(=O)N(C)C[C@@H]2OCCCC[C@@H](C)Oc3ccc(NS(=O)(=O)c4cccs4)cc3C(=O)N([C@H](C)CO)C[C@@H]2C)cc1

entry no. | 25 | 26 | 27 | 28 | 29 | 30 | 31 | 32
Env fusion inh | -40 | 1 | -117 | · | · | 17 | -7 | -16
UUG fidelity | -24 | -25 | · | -10 | 1 | · | · | -9&14
PABP FP inh | 13 | -2 | -12 | 0 | 1 | -9 | -11 | ·
eIF4H FP inh | 0 | -7 | -2 | 5 | -1 | 14 | 2 | ·
CSC inhib | 25 | 7 | -10 | -1 | 31 | 15 | -2 | ·
MT1-MMP act inh | -2 | 2 | -2 | 4 | -5 | 6 | 2 | -8
MT1-MMP act inh RFP | 1 | 4 | 12 | -4 | -25 | 4 | 9 | -11
Rce1 inhib | i | i | i | i | i | i | i | ·

33) N#Cc1ccc(C23CC4(C2)[C@H](CN(Cc2ccc(C(F)(F)F)cc2)[C@@H]4c2ccccc2)C3c2ccc(Cl)nc2)cc1 (stereo partly specified)
34) COc1ccc([C@H]2CC(=O)C=C(c3ccc(O)cc3)C2)cc1OC
35) O=C(NC1CCCCCC1)C(Cc1ccccc1)n1cccc1 (stereo unspecified)
36) COc1cc(C(=O)N2CCC(C(=O)Nc3cccc(C(C)=O)c3)CC2)cc(OC)c1OC
37) Cc1nc(NC(=O)c2ccccc2)sc1Cc1ccc2c(c1)OCO2
38) CCn1c(SCC(=O)N2CCCC2)nc2ccccc2c1=O
39) COc1ccc(C(=O)OCC(=O)NC2CC2)cc1
40) CN1CCN(C(CNC(=O)c2ccc(Br)o2)c2ccc(F)cc2)CC1 (stereo unspecified)

entry no. | 33 | 34 | 35 | 36 | 37 | 38 | 39 | 40
Env fusion inh | ? | -3 | 4 | · | -6 | -10 | -3 | 2
UUG fidelity | · | 13 | -15 | -4 | -17 | 6 | 12 | 4
PABP FP inh | -5 | · | 7 | -1 | 1 | 5 | · | ·
eIF4H FP inh | -8 | · | -2 | 4 | -16 | -2 | · | ·
CSC inhib | · | 13 | -9 | -15 | 42 | -4 | · | -16
MT1-MMP act inh | · | 4 | -1 | 2 | 1 | 4 | 0 | 0
MT1-MMP act inh RFP | · | -5 | 0 | 0 | -4 | 1 | 4 | 1
Rce1 inhib | i | · | i | i | i | i | · | i

Brought forward from above: five entries, followed by the next part.
No.	SMILES	Env fusion inh	UUG fidelity	PABP FP inh	eIF4H FP inh	CSC inhib	MT1-MMP act inh	MT1-MMP act inh RFP	Rce1 inhib
36	COc1cc(C(=O)N2CCC(C(=O)Nc3cccc(C(C)=O)c3)CC2)cc(OC)c1OC	·	-4	-1	4	-15	2	0	i
37	Cc1nc(NC(=O)c2ccccc2)sc1Cc1ccc2c(c1)OCO2	-6	-17	1	-16	42	1	-4	i
38	CCn1c(SCC(=O)N2CCCC2)nc2ccccc2c1=O	-10	6	5	-2	-4	4	1	i
39	COc1ccc(C(=O)OCC(=O)NC2CC2)cc1	-3	12	·	·	·	0	4	·
40	CN1CCN(C(CNC(=O)c2ccc(Br)o2)c2ccc(F)cc2)CC1 (stereo unspecified)	2	4	·	·	-16	0	1	i
41	COc1ccc(S(=O)(=O)Nc2ccccn2)c(C)c1C	-16	-3	-11	-5	17	-5	-3	i
42	O=C(Nc1nc(-c2ccccc2)cs1)C1COc2ccccc2O1 (stereo unspecified)	·	1	-10	-11	-8	3	-6	i
43	COc1ccc(N2CSC3=C(C#N)C(c4cccc(OC)c4OC)CC(=O)N3C2)cc1 (stereo unspecified)	3	-16	28	14	22	-5	1	i
44	NS(=O)(=O)c1cnccc1NCCc1ccccc1	7	-21	·	·	-13	-2	1	i
45	CNC(=O)COc1coc(CN2CCN(c3ccc(F)cc3)CC2)cc1=O	2	-22	3	12	0	-1	1	i
46	COc1cc(C(=S)N2CCCCC2)ccc1OCC(=O)Nc1ccccc1Cl	7	-23	5	-7	6	5	-2	i
47	CCOC(=O)c1c(/N=C/c2cccc(C)c2O)sc2c1CCN(C)C2	·	·	-2	2	-13	-2	4	i
48	Cc1nc(C)n(CC(O)COc2ccc(C(=O)c3ccccc3)cc2)n1 (stereo unspecified)	?	-14	-9	-5	-12	6	-7	i
49	CCOc1ccc2nc(NS(=O)(=O)c3ccc(NC(C)=O)cc3)sc2c1	-106	-24	3	4	9	-1	6	i
50	CSc1ccccc1C(=O)N(C)C(c1ccccc1)c1ccccc1	14	-15	12	-7	-9	-7	-4	i
51	CCN(CC)CC(=O)N1N=C(c2cccs2)CC1c1ccco1 (stereo unspecified)	·	-21	-11	-2	-5	-1	2	i
52	CSc1nnc(C)c(/C=C/Nc2ccc(F)cc2)n1	·	-15	0	-3	-15	-7	2	i
53	CCCCn1c(SCC(=O)c2ccccc2)nc2c1c(=O)[nH]c(=O)n2C	·	-14	15	-2	0	11	2	i
54	CCC(C)N(C(=O)COc1ccc(NC(C)=O)cc1)C1CCS(=O)(=O)C1 (stereo unspecified)	1	·	2	-1	-7	5	5	i
55	COc1ccc(-c2csc(N(CCCN3CCOCC3)C(=O)c3ccco3)n2)cc1	27	-9	6	-7	12	6	-2	i

No.	SMILES	Env fusion inh	UUG fidelity	PABP FP inh	eIF4H FP inh	CSC inhib	MT1-MMP act inh	MT1-MMP act inh RFP	Rce1 inhib
56	Clc1ccc(-c2[nH]ncc2N=Nc2ccccc2)cc1	-7	-8	3	3	70	4	-2	i
57	Cc1ccc(NC(=O)CN2CCN(S(=O)(=O)c3cccs3)CC2)cc1S(=O)(=O)N(C)C	-3	-20	1	-8	1	0	-3	i
58	O=C1N(CC(=O)N2CCc3ccccc32)CCN1Cc1ccccc1Cl	·	-10	11	-3	-5	1	0	i
59	CN(C(=O)c1ccccc1)c1ccc(OCC(=O)NC2CCS(=O)(=O)C2)cc1 (stereo unspecified)	23	-24	9	-1	13	5	4	i
60	Cc1ccc(NC(=O)C2CC(=O)N/C(=N/N=C/c3ccco3)S2)cc1C (stereo unspecified)	·	-25	1	2	3	6	5	i
61	Cc1csc(OCC(=O)Nc2ccc(C)c(C)c2)n1	·	-36	9	-1	-12	3	-1	i
62	Cc1ccccc1OCC(=O)OCC(=O)c1ccc(-c2ccccc2)cc1	-10	4	-10	-8	2	1	4	i
